CapD inh: Bacillus anthracis CapD inhibitors, primary screen, biochemical, fluorescence intensity | z-score (test concentration not listed) | CapD gamma-glutamyltranspeptidase (Bacillus anthracis Ames Ancestor) | 140,000 compounds, 0.23% hits | purified CapD enzyme, fluorescence intensity read-out; stronger effect = lower value; some hits fall short of the stated cut;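 active means z-score under -4 in either of two replicates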;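 further: stock transfer was 100 nL into about 40 µL; score is relative to mean and spread of the plate; one replicate is shown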
AID504770: growth inhibition of E. coli YBA685, primary screen, V. cholerae RctB inhibitors. E. coli YBA685 rctB-dependent plasmid, OD600 growth, 3 h; stronger effect = lower value. z-score (test concentration not listed). 130,000 compounds, 0.27% hits. AID 504770, 2011;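 active means z-score under -2 on both plates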;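 further: wells of about 30 µL received 100 nL stock; score is relative to mean and SD of the test wells; the first replicate is given; strong numbers were not always called active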
An asterisk follows results filed as active; · = no result given; & = joins results of further samples. Only part of the results is shown. The share of hits here may be higher or lower than overall.

SMILES	CapD inh	AID504770
COC(CN(C)S(=O)(=O)c1ccc2c(c1)oc(=O)n2C)OC	-1.6	-0.9
CCCn1c(SCC(=O)NCC23CC4CC(CC(C4)C2)C3)n[nH]c1=O	·	1.6
CCc1ccccc1N1CCN(C(=O)OCCn2nc(-c3ccccc3)cc2-c2ccccc2)CC1	0.2	·
O=c1[nH]c(C2CCCNC2)nc2c1nnn2Cc1ccccc1 (stereo not given)	·	0.15
Clc1ccccc1-c1[nH]ncc1-c1ccncn1	-0.92	·
CCCCn1c(-c2ccccc2)n[nH]c1=S	0.12	-0.2
CCCSc1nc2ccccc2n1CC(=O)Nc1ccc(C(N)=O)cc1	·	0.2
O=C(N/N=C/c1c[nH]c2cnc(OCc3ccccc3)cc12)c1ccc2ccccc2c1	0.57	·
Brc1ccc(Cn2ccnc2)cc1	-0.18	-1.6
CC1CN(C)CC(C)C1(O)c1ccccc1 (stereo not given)	0.47	0.3
CCOC(=O)C1C(=O)NC(c2ccccc2)=NC1c1ccc(C(F)(F)F)cc1 (stereo not given)	-0.075	·
N#Cc1cccc(NC(=O)c2c(Cl)nc3sccn23)c1	0.51	0.25
N#CCCN(CCc1ccccn1)S(=O)(=O)c1ccc(C#N)cc1	-0.45	·
COc1ccccc1NC(=O)C(C)NC(C)C (stereo not given)	·	0.45
O=C(NCCCN1CCN(C2CCCCC2)CC1)C1CCCN(S(=O)(=O)N2CCCCC2)C1 (stereo not given)	-1.6	-0.05
O=C(CCC(=O)N1CCC(N(C2CC2)S(=O)(=O)c2cccc(C(F)(F)F)c2)CC1)NC1CC1	-0.47	·
O=C(NCc1ccccc1F)c1cnc(N2CCCC2)nc1	1.9	0.85
CCN(C(=O)COc1ccccc1)c1nnc(-c2ccc(Cl)cc2)s1	0.43	1.1
Cc1ccccc1CSCc1nc(N)nc(Nc2ccccc2C)n1	·	0.5
O=C(Nc1ccc(Br)cc1F)c1cc(S(=O)(=O)NCc2ccccc2Cl)ccc1F	4.3	·

Continued, starting with the last 7 of the part before.
SMILES	CapD inh	AID504770
COc1ccccc1NC(=O)C(C)NC(C)C (stereo not given)	·	0.45
O=C(NCCCN1CCN(C2CCCCC2)CC1)C1CCCN(S(=O)(=O)N2CCCCC2)C1 (stereo not given)	-1.6	-0.05
O=C(CCC(=O)N1CCC(N(C2CC2)S(=O)(=O)c2cccc(C(F)(F)F)c2)CC1)NC1CC1	-0.47	·
O=C(NCc1ccccc1F)c1cnc(N2CCCC2)nc1	1.9	0.85
CCN(C(=O)COc1ccccc1)c1nnc(-c2ccc(Cl)cc2)s1	0.43	1.1
Cc1ccccc1CSCc1nc(N)nc(Nc2ccccc2C)n1	·	0.5
O=C(Nc1ccc(Br)cc1F)c1cc(S(=O)(=O)NCc2ccccc2Cl)ccc1F	4.3	·
Oc1[nH]c2ccccc2c1C=NCc1ccccc1	-0.97	-0.9
CN1CCc2cc3c(cc2C1O)OCO3 (stereo not given)	-0.57&-0.17	·
Cc1noc(C)c1-c1nc(-c2ccc(C(F)(F)F)cn2)no1	-1	-0.35
CCN1CCCC1CNC(=O)CCn1c(=O)c2cccn2c2cccnc21 (stereo not given)	41	0.1
CCC1CCCCN1C(=O)Cn1c(=O)n(CCC(=O)NCc2ccc3c(c2)OCO3)c(=O)c2ccccc21 (stereo not given)	-0.14	-0.55
COC(=O)c1ccc(CSc2c(C)[nH]c3ccccc23)o1	·	0.1
COc1ccc(C2=N/C(=C\c3ccc(OC)cc3OC)C(=O)O2)c(Br)c1	0.14	·
CCOC(=O)Cc1nnc2c3nnc(CC(=O)OCC)n3c3nonc3n12	-0.53	0.9
Clc1ccnnc1N1CCCC2CCCCC21 (stereo not given)	0.35	0.6
O=C(CN1CCN(C(=O)c2ccccc2)CC1)Nc1cccc2nsnc12	·	-0.2
COc1cc(/C=C2/NC(=S)NC2=O)ccc1OCc1ccc(C(=O)O)cc1	0	·
N#CCC(=O)N1CCOCC1	-0.065	·
O=C(OCC(=O)c1cc2ccccc2o1)c1cc(F)cc(F)c1	·	0.4
COc1ccccc1C1CCN(Cc2cn[nH]c2-c2ccc(F)cc2)CC1	0.33	-0.75
CCCN(CC1CC1)C(=O)COc1ncnc2sccc12	·	-0.2
N#Cc1c(/N=C/c2ccc(Cl)cc2)oc(-c2ccccc2)c1-c1ccccc1	1.7	·
CC(C)c1ccc(/C=C/[N+](=O)[O-])cc1	-0.41	·
CC(=S)Nc1ccc(Nc2ccccc2)cc1	·	-0.6
Cc1ccc(SCC(=O)Nc2nnc(SCc3ccccc3)s2)cc1	0.61	-2.8
Cn1ncc(NCCc2ccncc2)c(Cl)c1=O	0.08	-1.1
COC(=O)c1cccc(NC(=O)COC(=O)c2cc3ccccc3o2)c1	1.5	0.1
CC(C)C(Nc1ncnc2c1oc1ccccc12)C(=O)O (stereo not given)	·	1.5
CC(C)Sc1nc(-c2cccs2)cc(C(F)(F)F)c1C#N	59	-0.75
NC(=O)c1c(NC(=O)c2ccc3c(c2)OCCO3)sc2c1CCC2	16	1
CC1(C)CC(NCc2cccnc2)c2cccn21 (stereo not given)	1.5	·
Cc1ccc(S(=O)(=O)CC(O)CN2CCCC2=O)cc1 (stereo not given)	0.76	0.55
Clc1ccc(-c2cn3c4ccccc4nc3n2CCCNC2CCCCC2)cc1	-0.55	1.4
COc1ccc(NC(=O)c2c(NCc3ccc(C)o3)sc3c2CCCC3)cc1	0.22	0.65
C=CCn1c(CNC(=O)c2ccco2)nnc1SCC(=O)Nc1cccc(Br)c1	-0.68	1.6
CCOc1ccccc1NC(=O)COC(=O)Cc1ccc(OC)cc1	·	-0.35
CCOC(=O)c1cc(C(O)(C(F)(F)F)C(F)(F)F)c(N)o1	·	0.2
O=C1Nc2ccccc2Oc2cc(Sc3ccccc3)ccc21	-0.72	0.9
O=C(/C=C/c1ccc2c(c1)OCO2)Oc1ccc2c(c1)OCO2	·	0.35
CCOC(=O)CC(=O)N/N=C/c1c(O)cc(OC)cc1OC	-1.4	·
CC(c1ccco1)N(Cc1ccco1)C(=O)Nc1ccccc1 (stereo not given)	-0.85	-0.05
N#Cc1c2n(c3c(=O)n(CC(=O)c4ccc(Cl)cc4)cnc13)CCCCC2	0.22	·
CCOC(=O)N1CCN(C(=O)c2ccc3c(=O)n(Cc4cccc(Br)c4)c(=S)[nH]c3c2)CC1	0.46	·
CN(CC(=O)Nc1ccc(N2CCOCC2)cc1)S(=O)(=O)c1ccc2c(c1)OCCO2	·	-0.25
O=c1cc(NCCCO)c2ccccc2o1	0.61	-0.95
O=C(CSc1nc2[nH]ncc2c(=O)n1-c1cccc(C(F)(F)F)c1)c1ccc(Br)cc1	-0.09	·
COc1ccccc1NC(=O)c1c(NCc2cccs2)sc2c1CCCCC2	0.35	0
CCCNC(=O)C1CN(S(=O)(=O)c2ccc(Cl)s2)c2ccccc2O1 (stereo not given)	·	-0.75
CCCCn1nnnc1COC(=O)c1c2c(nc3ccccc13)CCCCC2	·	-0.15
O=C(Nc1ccc(C(F)(F)F)cc1)N1CCC(C(F)(F)F)CC1	10	0.8
Cc1nc2oc3ccc(Cl)cc3c(=O)c2cc1C(=O)Nc1ccc(Cl)cc1	6.5	·
CC(C)Oc1ccc(/C=N/NC(=O)COc2ncn(-c3ccccc3)n2)cc1	-0.94	·
CCCNC(=O)CCc1c(C)nc2c(c1C)c(=O)n(C)c(=O)n2C	-0.42	1.3
COc1cc(/C=C2/C(=O)N(c3ccc(F)cc3)N=C2C)ccc1OCc1ccc(F)cc1	-1.8	·
CCN(CC)S(=O)(=O)c1cccc(-c2[nH]c3ccccc3[n+]2-c2ccccn2)c1	0.69	0.15
Cn1c(=O)c2c(ncn2CC(O)CO)n(C)c1=O (stereo not given)	0.46&0.33	-0.1
Cc1ccc(/C(C#N)=C\c2ccco2)cc1	·	-0.25
O=C(CCN1C(=O)CSC1=O)Nc1ccccc1	·	2.5
Cc1ccc(C(=O)NNc2nc(Nc3ccccc3)nc(N3CCCC3)n2)cc1	0.2	0.4
N#CC1=C(N)C(C#N)(C#N)C(c2cccc(Oc3ccccc3)c2)C2CCCC=C12 (stereo not given)	-0.34	·
O=C(Cc1ccccc1)ON=C1C=CC(=NOC(=O)c2ccco2)C=C1	-0.3	0.3
Cc1ccc(-c2nc(C)sc2C)cc1	0.39	0.15
NC(=O)N/N=C1\c2ccccc2-c2c(C(N)=O)cccc21	-0.15	0.1
COc1ccc(NC(=O)CSc2nc(-c3cccs3)ccc2C#N)cc1	2.9	·
O=C1c2cc(S(=O)(=O)NCc3ccco3)cc([N+](=O)[O-])c2-c2c1cc(S(=O)(=O)NCc1ccco1)cc2[N+](=O)[O-]	-0.24	·
Cc1cc2nc3s/c(=C/c4ccc(N5CCC(C)CC5)c([N+](=O)[O-])c4)c(=O)n3c2cc1C	0.62	·

More records.
SMILES	CapD inh	AID504770
CC(C)(CO)NC(=O)c1ccccc1F	0.51	0.65
Cc1nc(N2CCCCC2)ncc1S(=O)(=O)c1ccc(Cl)cc1	0.84	·
CCC(C)NC(=O)c1c(C)nn(CC(C)C)c1Cl (stereo not given)	·	0.1
COC(=O)c1sc2c(C)cc(Cl)c(C)c2c1C(=O)Oc1ccccc1	0.77	-0.35
O=C(O)CSCC(=O)NC1CCCc2ccccc21 (stereo not given)	0.35	-0.2
O=C(CSc1n[nH]c(=O)n1C1Cc2ccccc2C1)c1ccc2c(c1)OCCO2	-1.8	1.6
CCOC(=O)c1c(C)n(C)c2ccc(OC(=O)c3cccc(Br)c3)cc12	-0.065	·
O=S(=O)(Cc1cc(N2CCOCC2)nc(-c2cccnc2)n1)c1ccccc1	-0.41	·
O=c1cc(CSc2ncccn2)nc2ccc(Br)cn12	·	0.3
COc1ccc(C#CC(=O)O)cc1	-0.07	0.15
CCCC(=O)NC1CCS(=O)(=O)C1 (stereo not given)	·	-1.1
Cn1c(C(=O)Nc2ccc3c(c2)NC(=O)CC3)cc(=O)n(C)c1=O	·	-0.85
CN(C)S(=O)(=O)c1ccc(NCC(=O)N2CCN(c3ccccc3)CC2)cc1	·	-0.1
Cn1ncc(Br)c1NC(=O)Nc1ccc(F)cc1	-0.14	·
CCOC(=O)C1CCCC(C)N1 (stereo not given)	0.23	0.65
COc1cccc(N2CCN(C(=O)OCc3c(C)noc3-c3cc(C)on3)CC2)c1	0.36	·
CNC(=O)c1cc(Cl)ccn1	·	1.9
NC1=NC(=O)C(CC(=O)Nc2cccc3ccccc23)S1 (stereo not given)	0.86	0
CS(=O)(=O)OCCCCOS(C)(=O)=O	-1.1	0.05
CN(C)C(=S)c1nc2ccccc2s1	·	-0.9

Profiles as entered above:
Listed for CCOC(=O)c1c(C)n(C)c2ccc(OC(=O)c3cccc(Br)c3)cc12 = CapD inh: -0.065; AID504770: ·
Listed for CS(=O)(=O)OCCCCOS(C)(=O)=O = CapD inh: -1.1; AID504770: 0.05

The results go on:
SMILES	CapD inh	AID504770
COC(=O)c1ccccc1C(=O)c1cc(C)c(O)c(C)c1	-0.74	·
COc1ccc(OCC(=O)NCCO)cc1	·	1.7
Cc1cccc(C)c1NC(=S)SCC(N)=O	-0.26	-1.2
COC(=O)c1ccc(/C=C2\SC(=Nc3cc(C)cc(C)c3)NC2=O)cc1	-0.24	·
CC(C)COC(=O)c1cn(C2CCCCC2)c2ccccc2c1=O	-0.68	-0.35
OC(c1ccccc1)c1nc2ccccc2n1Cc1ccccc1 (stereo not given)	2.1	-0.1
O=C(CN1CCN(c2ccc(C(F)(F)F)cn2)CC1)N1CCCC1c1ccc2c(c1)OCCCO2 (stereo not given)	·	-0.3
Cn1nc(Nc2ccccc2N)cc1-c1ccccc1	·	-0.8
C/C(=N\N=C1/NC(=O)CC(C(N)=O)S1)c1cccs1 (stereo not given)	-4	-0.3
CCOc1ccc2c(c1)C(C)CC(C)(C)N2 (stereo not given)	2.4	1.4
Cc1ccc(CNc2ccc3c(c2)CCC3)o1	2	1.9
COc1cc(NC(=O)c2ccc3c(=O)n(Cc4ccc5c(c4)OCO5)c(=S)[nH]c3c2)cc(OC)c1OC	-0.62	·
Cc1cc(NC(=O)C2CCC2)n(-c2ccccn2)n1	·	-0.75
O=C(CN(c1ccc2c(c1)OCCO2)S(=O)(=O)c1ccccc1)NCc1ccco1	·	-0.3
Cc1cccc(C(=O)OCC(=O)Nc2oc(C)c3c(C)n[nH]c(=O)c23)c1O	·	-0.25
O=C(Nc1ccc(-c2nc3ccccc3s2)cc1)C1=COCCO1	5.5	0.15
O=C1c2ccccc2CN1C(CO)c1ccccc1 (stereo not given)	1.1	0.75
CCC(C)NC(=O)CCN1C(=O)c2ccccc2C1=O (stereo not given)	-0.9	-0.95
CCOC(=O)C1=C(C)NC(=O)NC1c1cc(OC)c(OC)c(OC)c1 (stereo not given)	1.2	·
CCc1ccc(NC(=O)c2cccc3c2C(=O)N(CC)C3)cc1	0.9	0.05

Rewritten with two lines to a compound: 3 of the compounds above
The line under a structure holds: CapD inh	AID504770
Cc1ccc(CNc2ccc3c(c2)CCC3)o1
 : 2	1.9
C/C(=N\N=C1/NC(=O)CC(C(N)=O)S1)c1cccs1 (stereo not given)
 : -4	-0.3
O=C(CN1CCN(c2ccc(C(F)(F)F)cn2)CC1)N1CCCC1c1ccc2c(c1)OCCCO2 (stereo not given)
 : ·	-0.3

Next section:
SMILES	CapD inh	AID504770
CCN(CC)C(=O)Cn1cc(/C=C2\C(=O)NC(=O)N(CC)C2=O)c2ccccc21	8.2	-0.65
CCCOc1ccc(C2Nc3ccccc3NC3=C2C(=O)CC(c2ccc(OC)c(OC)c2)C3)cc1 (stereo not given)	-2.2	·
COC(=O)c1ccc(CSc2nnc(C3CC3)n2Cc2ccccc2)o1	·	0.1
CCOC(=O)C1=C(c2ccccc2)NC(SCC(=O)Nc2ccccc2)=C(C#N)C1c1ccco1 (stereo not given)	4.9	0.95

Screens from PubChem.
